Cruzain Triton: blocks cruzain activity in presence of Triton detergent; purified cruzain, Z-FR-AMC fluorescence, 0.01% Triton; Potency, µM, without a hit: max response, negative = inhibition, hits mostly inhibitors; 200,000 compounds, 0.43% hits; active = well fitted curve in the direction sought with a large enough effect; inconclusive = small, poorly fitted or top-dose-only effect, or another doubt; inactive = no such curve, though single readings can be large; an effect the other way counts as inactive or inconclusive;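 also: plate controls were neutral wells for no effect and buffer without enzyme for full effect; nearly all actives have a fitted effect of over 40% in size; top concentration of the series not given in the record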
Target sequence (P25779 123-467 limits assumed): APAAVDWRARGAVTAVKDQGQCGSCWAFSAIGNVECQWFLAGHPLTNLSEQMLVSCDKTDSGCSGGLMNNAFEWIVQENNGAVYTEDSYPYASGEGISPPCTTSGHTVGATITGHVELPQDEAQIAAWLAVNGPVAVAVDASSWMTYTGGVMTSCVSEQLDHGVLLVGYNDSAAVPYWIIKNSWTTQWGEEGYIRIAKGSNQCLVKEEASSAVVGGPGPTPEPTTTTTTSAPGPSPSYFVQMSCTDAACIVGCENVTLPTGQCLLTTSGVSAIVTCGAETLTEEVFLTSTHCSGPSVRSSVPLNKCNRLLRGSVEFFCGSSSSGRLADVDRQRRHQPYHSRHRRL
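Cruzain (1.5 nM) preincubated 15 min at RT with compound in 100 mM sodium acetate pH 5.5, 5 mM DTT, 0.01% Triton X-100. Reaction started with 2 uM Z-FR-AMC; AMC fluorescence (ex 360/em 450 nm) change over 60 s gave rate.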
LASV entry inh: inhibitors of Lassa virus binding or cell entry. 300,000 compounds, 1.2% hits. Potency, µM (top dose mostly 37.9 µM), for the others: at the highest dose activity change, negative = inhibition, actives largely listed as inhibitors. Lassa virus pseudotype entry inhibition, cell reporter; control for the full effect not named in the record; active means well fitted inhibition curve with a large enough effect; inconclusive means small, poorly fitted or top-dose-only effect, or effect the other way; inactive means flat fitted curve, though single readings scatter; tested in HEK293 cells; also: % is scaled to controls: 0 for no effect and ±100 for the full control effect; nearly all actives have a fitted effect of over 50% in size; luciferase read-out
Cruzain inh noDet: cruzain (T. cruzi) inhibition without detergent. P25779. purified cruzain, Z-FR-AMC fluorescence, no detergent. Potency, µM, without a hit: max response, negative = inhibition, hits mostly inhibitors. 200,000 compounds, 2.3% hits. AID 1476; active = well fitted curve in the direction sought with a large enough effect; inconclusive = small, poorly fitted or top-dose-only effect, or another doubt; inactive = no such curve, though single readings can be large; an effect the other way counts as inactive or inconclusive;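 also: plate controls were enzyme without inhibitor for no effect and buffer without enzyme for full effect; nearly all actives have a fitted effect of over 40% in size; top concentration of the series not given in the record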
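Purified cruzain at 1.5 nM, pre-incubated 15 min with compound at room temperature in 100 mM sodium acetate pH 5.5, 5 mM DTT, 0.00005% Triton X-100. Reaction started with 2 uM Z-FR-AMC; AMC fluorescence increase over 60 s gives rate.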
SARS PLP yeast: inhibitors of SARS-CoV papain-like protease in yeast; 330,000 compounds, 0.19% hits; Potency, µM (highest dose often 32.9 µM), for inactives: at the highest dose activity, positive = growth rescue; S. cerevisiae expressing SARS-CoV PLpro, growth rescue; control for the full effect not named in the record; also: 0% is about no effect; nearly all actives have a fitted effect of over 55% in size; growth read by luminescence after 48 h
RE007 growth inh: less growth of the S. pombe RE007 Vpr strain; Potency, µM (series often up to 92.2 µM), without a hit: at the top dose activity change, negative = less growth; 360,000 compounds, 0.21% hits; S. pombe RE007 Vpr strain, BacTiter-Glo ATP luminescence, 24 h; control for the full effect not named in the record; AID 651644; active = well fitted falling curve with a large enough effect; inconclusive = small, poorly fitted or top-dose-only effect; inactive = no such curve, though single readings can be large or run the other way;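 also: % is scaled to controls: 0 for no effect and ±100 for the full control effect; nearly all actives have a fitted effect of over 50% in size; the assay follows cell death caused by Vpr and the record does not say whether a fall means rescue or toxicity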
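Fission yeast RE007 carrying one integrated HIV-1 vpr copy, seeded at OD 0.01 in PMG+AL medium with 23 nL pinned compound. Grown 24 h at 30 degrees; viability read by BacTiter-Glo luminescence after 5 min.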
2A StopGo: FMDV 2A StopGo reporter, luciferase signal; human cells with a luciferase reporter of 2A StopGo recoding; control for the full effect not named in the record; Potency, µM (titrated, usually from 57.9 µM), for the others: at the highest dose signal change, negative = less light; 410,000 compounds, 1.2% hits; AID 1159524; active = well fitted falling curve with a large enough effect; inconclusive = small, poorly fitted or top-dose-only effect; inactive = no such curve, though single readings can be large or run the other way; tested in HEK293T cells; also: % is scaled to controls: 0 for no effect and ±100 for the full control effect; nearly all actives have a fitted effect of over 45% in size; luciferase light after 4 h
NS1 function inh: inhibitors of influenza NS1 protein function. AID 2326. Potency, µM (highest dose often 46.1 µM), without a hit: top-dose activity, positive = more growth. 270,000 compounds, 0.4% hits. S. cerevisiae slowed by influenza A NS1, growth recovery by OD600; also: actives are rising curves; nearly all actives have a fitted effect of over 50% in size
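Compounds were scored for reversing the slow growth caused by influenza A NS1 in S. cerevisiae, measured by optical density at 600 nm. Assay medium contained 2% galactose at pH 6.0; NS1-free yeast of the same strain were the positive control.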
MARV entry inh: inhibitors of Marburg virus binding or cell entry | Potency, µM (top dose mostly 37.8 µM), for the others: at the highest dose activity change, negative = inhibition, actives largely listed as inhibitors | 300,000 compounds, 1.8% hits | AID 540276 | Marburg virus pseudotyped entry inhibition, cell reporter; control for the full effect not named in the record; about a third of the inactives were read at about 46 µM; active = well fitted inhibition curve with a large enough effect; inconclusive = small, poorly fitted or top-dose-only effect, or effect the other way; inactive = flat fitted curve, though single readings scatter; tested in HEK293 cells; about a fifth of its hits are not listed in these tables; also: % is scaled to controls: 0 for no effect and ±100 for the full control effect; luciferase read-out
Active calls of the source: *; ? = inconclusive; . = no result given; & = joins results of further samples; [ ] = remark or other dose. Unless noted, calls follow the shape of the dose curve; as a rule, active means well fitted rising curve with a large enough effect; inconclusive means small, poorly fitted or top-dose-only effect; inactive means no such curve, though single readings can be large or run the other way. Potency is read from the fitted curve at half-maximal effect.

SMILES	Cruzain Triton	LASV entry inh	Cruzain inh noDet	SARS PLP yeast	RE007 growth inh	2A StopGo	NS1 function inh	MARV entry inh
Cc1ccc(C(=O)NC2CCC(C)CC2)s1 (stereo not given)	.	?	.	5%	-23%	11%	.	?
COCCCNC(=O)CCCn1c(SCC(=O)c2ccc(Br)cc2)nc2c(sc3ccccc32)c1=O	-1.0%	12%[46.1 µM]	-1%	.	.	-1%	.	-4%[46.1 µM]
CCOc1ccc(N2C(=O)C3=C(C(c4ccc(Cl)cc4)=NCCN3)C2c2cccnc2)cc1 (stereo not given)	.	?	.	-2%	16%	-3%	.	11µM*
CS(=O)(=O)c1ccccc1-c1nc(-c2ccc([N+](=O)[O-])cc2)no1	.	9%	.	2%	1%	-4%	.	2%[46.1 µM]
NNc1nc(C(F)(F)F)nc2ccccc12	.	-17%	.	-2%	-2%	-1%	.	1%[46.1 µM]
COc1cccc(OCCCCCCN2CCOCC2)c1	0.9%	27%	12%	-5%	-7%	-15%	3%	0%
N#CC(c1ccc(F)cc1)c1ccc(C(=O)c2ccccc2)cc1 (stereo not given)	-5.5%	?	-6%	-13%	-4%	?	-2%	?
O=C(N/N=C/c1ccc(Sc2nc3ccccc3[nH]2)o1)c1ccncc1	-7.6%	?	-6%	6%	15%	-21%	-9%	21%
C=CCNC(=O)N1CCCC(N2CCN(c3ccccc3OC)CC2)C1 (stereo not given)	.	9%	.	13%	-1%	-14%	14%	-17%
O=C(c1ccccc1)C1CCCN(Cc2nc(-c3cnccn3)no2)C1 (stereo not given)	.	.	.	-1%	5%	-9%	0%	27%[46.1 µM]
CCSc1nnc(NC(=O)Cc2ccc(OC)c(OC)c2)s1	0.2%	0%	2%	4%	12%	-16%	7%	-4%[46.1 µM]
CCOC(=O)c1c(/N=C/N(C)C)sc(/C=N/Nc2ccccc2)c1-c1ccccc1Cl	-4.5%	?	?	-16%	8%	-5%	15%	?
Cc1cccc(NC(=O)CCC(=O)N/N=C/c2ccco2)c1	-0.6%	-9%	-1%	5%	5%	-3%	14%	-1%
C[C@H]1CN=C(Nc2ccccc2)N1CC1CCC1	.	.	.	2%	-14%	0%	5%	.
COc1ccc(OC)c(C2CC(=O)Nc3n[nH]c(-c4ccccc4)c32)c1 (stereo not given)	.	?	.	1%	-1%	-19%	-3%	?
CCCCCCCCCCCCCCCC(=O)NCCc1c[nH]c2ccccc12	.	.	.	0%	5%	-10%	5%	.
CC(C)N(Cc1cnn(C)c1)C(=O)C1CCC(=O)N(CCc2cccc(F)c2)C1 (stereo not given)	.	5%	.	0%	1%	17%	-3%	21%
Cc1ccc2c(Sc3ccc(Cl)cc3)c(C(=O)NCCC(C)C)[nH]c2c1	-8.0%	-13%[46.1 µM]	1%	.	.	67%[activator]	.	-18%[46.1 µM]
CN(C)CCCNc1oc(/C=C/c2cccs2)nc1S(=O)(=O)c1ccccc1	.	.	.	1%	8%	-2%	12%	.
Cn1cnc([N+](=O)[O-])c1Sc1ccc([N+](=O)[O-])cc1	.	-29%	.	-3%	34%	22µM*	3%	?
CCOC(=O)C(=O)Nc1ccc(S(=O)(=O)Nc2ncccn2)cc1	3.6%	1%	1%	4%	15%	10%	0%	0%
Nc1c(C(=O)NCCc2ccccc2)nnn1CC(=O)Nc1ccc(Cl)cc1	-0.7%	?	25µM*	.	.	1%	.	.
Cc1cccc(NS(=O)(=O)c2cc([N+](=O)[O-])ccc2C)n1	.	12%	.	0%	21%	11%	1%	-5%[46.1 µM]
Cc1cc(C)cc(NS(=O)(=O)c2ccc3[nH]cc(C(=O)NC4CCCCC4)c(=O)c3c2)c1	-12%	-17%[46.1 µM]	?	.	.	-14%	.	-18%[46.1 µM]
O=C(CSc1nc(=O)n2ccccc2n1)NCc1ccccc1	.	15%	.	3%	1%	-9%	.	-22%[46.1 µM]
Cc1ccc(NCC(=O)N/N=C/c2c[nH]c3ccccc23)cc1	.	?	.	0%	1%	29%	.	1%[46.1 µM]
O=C(CSc1nnc(-c2ccc(F)cc2)o1)Nc1ccc(S(=O)(=O)N2CCCC2)cc1	-0.4%	2%	2%	0%	13%	-13%	-2%	-7%&5%
COc1cccc(CNC(=O)CCC2CCCN(C(=O)C3CCOCC3)C2)c1 (stereo not given)	.	15%[46.1 µM]	.	1%	-6%	-5%	-1%	13%[46.1 µM]
CCOC(=O)C1(Cc2ccccc2C)CCCN(C(=O)COC)C1 (stereo not given)	.	.	.	-5%	0%	0%	1%	.
Cc1nn(C(=O)c2c(F)cccc2F)c(C)c1S(=O)(=O)N1CCOCC1	0.4%	?	17%	.	.	-6%	.	.
COC(=O)CN1C(=O)[C@H]2[C@@H](c3ccc(C)o3)N3C(=O)CN(Cc4ccccc4)C(=O)[C@@]3(C)[C@H]2C1=O	.	.	.	-1%	3%	-5%	-17%	.
Cc1cccc(NC(=O)N2CCC(n3nnc4cc(C)ccc43)CC2)c1	.	.	.	1%	-4%	10%	-6%	.
COc1cccc(N2CCN(Cc3cccc(Cl)c3)CC2)c1	-0.2%	-5%	0%	-5%	-13%	-17%	-1%	22%
O=C(CCNC(=O)c1ccco1)Nc1ccc(SC(F)F)cc1	.	13%[46.1 µM]	.	1%	-6%	19%	.	6%[46.1 µM]
O=C(Nc1nnc(-c2ccc(Cl)cc2)o1)Nc1ccccc1Cl	3.5%	?	-7%	-2%	9%	23%	-15%	2%
COc1ccc2c(c1OC)C(=O)N(c1cccc(C(F)(F)F)c1)C2	-4.9%	?	?	5%	-2%	40%[activator]	-59%	4%
Cc1nc(C)c(-c2ccc(SCC(=O)Nc3ccc(C)c(F)c3)nn2)s1	-3.0%	16%[46.1 µM]	27%	.	.	?	.	.
COC(CNC(=S)Nc1ccc([N+](=O)[O-])cc1)OC	-9.2%	0%	-4%	19%	-2%	46%[activator]	9%	9%
CC(=O)NC(=S)Nc1ccc(S(=O)(=O)N2CCOCC2)cc1	.	1%	.	0%	25%	51%[activator]	3%	?
Cc1ccc(SCc2cc(-c3ccc(Cl)cc3)no2)cc1	-0.8%	-11%	-17%	0%	-1%	13%	11%	6%
CCOC(=O)c1c(C)nc2cc(C)cc(C)n12	.	1%[46.1 µM]	.	1%	-9%	13%	-2%	?
O=C(CCl)NC(Cc1ccccc1)c1ccccc1 (stereo not given)	.	-18%	.	1%	15%	?	-2%	?
O=C(Nc1ccc(F)cc1F)c1ccc(-n2cccn2)nc1	.	0%	.	1%	6%	-7%	.	?
COc1ccc(NC(=O)C2CCN(C(=O)Nc3ccc(C)cc3)CC2)cc1OC	.	-6%[46.1 µM]	.	2%	1%	-4%	-6%	3%[46.1 µM]
O=C(Nc1ccc(-c2csnn2)cc1)C1CC1	.	10%	.	-1%	7%	37%[activator]	-2%	?
O=C(O)c1ccc(S(=O)(=O)c2ccc3c(c2)C(=O)N(NC(=O)c2cccnc2)C3=O)cc1	.	.	.	1%	7%	1%	2%	.
CCOC(=O)[C@@H]1[C@H]2COc3ccccc3[C@H]2N2C(=O)N(c3ccccc3)C(=O)[C@]12C	.	.	.	10%	12%	-12%	14%	.
O=C(C1CC1)N1CCN(S(=O)(=O)c2ccc3c(c2)OCCO3)CC1	.	3%[46.1 µM]	.	0%	6%	-16%	.	-23%[46.1 µM]
O=C(Nc1ccccc1N1CCOCC1)c1cnccn1	3.2%	.	-7%	-10%	.	-17%	-5%	8%
CC1(C)CC1C(=O)Nc1ccc([N+](=O)[O-])cc1Br (stereo not given)	-6.4%	-19%	-4%	7%	-6%	1%	-15%	-19%
CC1CN=C(N(Cc2ccccc2)C(=O)Nc2ccccc2)S1 (stereo not given)	3.3%	-2%	-19%	4%	?	17%	1%	8%
COc1ccc(C2(C)CC(=O)NC2=O)cc1 (stereo not given)	.	19%[46.1 µM]	.	-2%	-6%	-9%	2%	12%[46.1 µM]
Cc1ccnc(NC(=O)Cn2cc([N+](=O)[O-])cn2)c1	.	1%	.	8%	16%	75%[activator]	.	?
COCCN(Cc1ccccc1)C(=O)c1cccc(S(=O)(=O)N(C)c2c(C)n(C)n(-c3ccccc3)c2=O)c1	.	-14%	.	-1%	-7%	1%	.	-3%
O=C(CN(C(=O)CCC(=O)Nc1nccs1)c1ccc(F)cc1)NCc1ccco1	0.3%	13%	-2%	0%	-3%	0%	-2%	11%
C/C(CC(=O)Nc1ccc(Br)cc1)=N\NC(=O)Cc1csc(N)n1	.	14%	.	0%	3%	12%	-2%	3%[46.1 µM]
Cc1ccc(OCCCCn2ccnc2)c(Cl)c1	5.7%	5%	12%	-3%	-4%	12%	-8%	21%
O=C(Nc1ccc(Cl)cc1Cl)c1n[nH]c(Cn2cncn2)n1	1.4%	-1%	-1%	-4%	-18%	33%[activator]	6%	19%
O=[N+]([O-])c1nn(-c2ccc3c(c2)OCCO3)n(O)c1=NCCCO	-5.4%	-24%	-8%	3%	-23%	28%	-5%	?
Cc1ccc(/C=C/C(=O)N2CCN(c3cccc(C(F)(F)F)c3)CC2)cc1	-10%	-2%	3%	11%	13%	?	23%	27%
The results go on.
SMILES	Cruzain Triton	LASV entry inh	Cruzain inh noDet	SARS PLP yeast	RE007 growth inh	2A StopGo	NS1 function inh	MARV entry inh
Cc1nc2ccccc2n1CCc1nc2c3ccccc3nc(SCC(=O)NCc3ccco3)n2n1	-13%	?	-4%	2%	-3%	?	-8%	10µM*
O=C(COc1ncnc2c1cnn2-c1ccccc1)Nc1ccc(S(=O)(=O)N2CCCCC2)cc1	-5.8%	?	?	-6%	-11%	-19%	-8%	?
Cc1cc2c(cc1C)NC(c1nc3ccccc3[nH]1)C1=C(CC(C)(C)CC1=O)N2 (stereo not given)	-2.5%	11%	-10%	5%	1%	-13%	-8%	2%
COc1ccc(-n2c(CNC(=O)c3cccs3)n[nH]c2=S)cc1	.	15%	.	0%	-1%	-8%	.	-3%[14.2 µM]
COCCCN(C(C)=O)c1nc(-c2ccccc2)cs1	-3.2%	?	10%	-6%	-15%	9%	-17%	23%

This is a random part of the collection; overall some 4.7% were active at least once.
